# TR SRC2 fluor cs: Total Fluorescence Counterscreen for Inhibitors of the Interaction of Thyroid Hormone Receptor and Steroid Receptor Coregulator 2; AID 1479, 2009; Potency, µM (highest dose often 106 µM), inactives show at the highest dose fluorescence change, negative = quenching; actives 0.29% (n = 280,000); TRb/SRC2 Texas Red total fluorescence interference; active = well fitted curve in either direction with a large enough effect; inconclusive = small, poorly fitted or top-dose-only effect; also: % is scaled to controls: 0 for no effect and ±100 for the full control effect
#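 Human TRβ ligand-binding domain (0.6 uM) and Texas Red SRC2 peptide (20 nM) in Tris buffer with 1 uM T3 and 5% DMSO were incubated with pinned compound for 5 hr at ambient temperature. Total fluorescence was computed as S + 2P (555/632 nm).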
# ALDH1A1 block: qHTS Assay for Inhibitors of Aldehyde Dehydrogenase 1 (ALDH1A1); Aldehyde dehydrogenase 1A1 (Homo sapiens), P00352; Purified ALDH1A1, NADH fluorescence, propionaldehyde substrate; Potency, µM (highest dose often 75.3 µM), without a hit: at the top dose activity, negative = inhibition, actives largely listed as inhibitors; actives 7.3% (n = 220,000); active = well fitted inhibition curve with a large enough effect, not every such curve was filed as active; inconclusive = small, poorly fitted or top-dose-only effect, or another doubt; inactive = no such curve, though single readings can be large or run the other way;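 also: plate controls were no enzyme wells and a reference inhibitor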
# Target sequence (P00352 whole entry, looked up): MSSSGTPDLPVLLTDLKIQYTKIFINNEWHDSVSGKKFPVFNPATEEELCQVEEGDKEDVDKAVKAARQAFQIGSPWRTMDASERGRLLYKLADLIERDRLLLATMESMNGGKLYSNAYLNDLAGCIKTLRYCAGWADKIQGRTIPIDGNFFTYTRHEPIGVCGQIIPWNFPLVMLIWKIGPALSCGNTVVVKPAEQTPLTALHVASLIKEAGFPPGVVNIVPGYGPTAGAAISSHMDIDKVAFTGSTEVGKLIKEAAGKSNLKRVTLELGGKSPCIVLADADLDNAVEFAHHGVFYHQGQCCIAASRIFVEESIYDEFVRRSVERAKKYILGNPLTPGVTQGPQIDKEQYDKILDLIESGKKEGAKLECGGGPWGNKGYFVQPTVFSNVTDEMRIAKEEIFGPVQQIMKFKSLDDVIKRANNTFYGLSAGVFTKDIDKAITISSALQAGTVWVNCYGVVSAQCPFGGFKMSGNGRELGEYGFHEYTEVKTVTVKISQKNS
# Lamin A splicing: qHTS Assay for Modulators of Lamin A Splicing | actives 0.01% (n = 200,000) | Potency, µM (series often up to 46.1 µM), inactives show at the top dose ratio change, negative = inhibition, usual class: inhibitors | HeLa LMNA splicing GFP/RFP minigene ratio, 48 h | AID 1487, 2009; active = well fitted inhibition curve with a large enough effect in the signal ratio, with a control signal flat, not every such curve was filed as active; inconclusive = small, poorly fitted or top-dose-only effect, or effect the other way, or a change in a side signal; the % refers to the signal ratio; also: % is scaled to controls: 0 for no effect and ±100 for the full control effect
#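 S3 HeLa cells stably expressing lamin A-EGFP splicing minigene plus DsRed2, 600 cells/well, 48 h compound exposure at 37C. Laser-scanning cytometry; analysed as GFP (500-530 nm)/RFP (575-640 nm) total intensity ratio; 0.5% DMSO vehicle.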
# TRb-SRC2 inh: qHTS for Inhibitors of the Interaction of Thyroid Hormone Receptor and Steroid Receptor Coregulator 2; Thyroid hormone receptor beta (Homo sapiens), P10828; TRbeta-SRC2 peptide binding, fluorescence polarization; receptor liganded with 1 µM T3; Potency, µM (top dose mostly 106 µM), for the others: at the top dose activity change, negative = inhibition, hits mostly inhibitors; actives 0.065% (n = 280,000);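 also: plate controls were bound peptide for no effect and peptide without receptor for full effect; nearly all actives have a fitted effect of over 50% in size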
# Target sequence (P10828 whole entry, looked up): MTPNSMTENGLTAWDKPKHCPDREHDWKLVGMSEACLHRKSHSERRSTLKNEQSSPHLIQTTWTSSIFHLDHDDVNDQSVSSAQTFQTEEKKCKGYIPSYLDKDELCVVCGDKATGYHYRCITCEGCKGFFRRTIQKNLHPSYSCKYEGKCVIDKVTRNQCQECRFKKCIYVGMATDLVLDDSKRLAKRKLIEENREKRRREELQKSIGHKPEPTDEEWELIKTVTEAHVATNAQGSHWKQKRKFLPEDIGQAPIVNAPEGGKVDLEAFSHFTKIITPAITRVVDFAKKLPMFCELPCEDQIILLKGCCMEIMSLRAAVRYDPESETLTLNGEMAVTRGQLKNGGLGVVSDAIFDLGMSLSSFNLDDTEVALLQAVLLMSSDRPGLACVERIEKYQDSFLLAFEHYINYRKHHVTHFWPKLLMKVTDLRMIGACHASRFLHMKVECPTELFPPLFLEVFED
#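 Fluorescence polarization of 20 nM Texas Red SRC2 peptide with 0.6 uM human TRb ligand-binding domain, in Tris buffer with 1uM T3 and 5% DMSO. Incubated 5 hr ambient; normalized to unbound and bound controls.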
# SMN2 splice enh: qHTS Assay for Enhancers of SMN2 Splice Variant Expression; AID 1458, 2008; actives 2.8% (n = 210,000); HEK293 SMN2-luciferase splicing reporter, luminescence, 30-36 h; Potency, µM (series often up to 46.1 µM), for the others: at the highest dose activity change, positive = activation, most hits filed as activators; also: % of control where 0% means no effect; nearly all actives have a fitted effect of over 55% in size
#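 qHTS luciferase splicing reporter: luminescence rises when SMN2 exon 7 is included in transfected HEK293 cells. Compound exposure lasted 30-36 h at 37C, with 4.5 mM final sodium butyrate as control, followed by a ONE-Glo read.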
# RECQ1 helicase: qHTS Assay for Inhibitors of RecQ-Like Dna Helicase 1 (RECQ1); ATP-dependent DNA helicase Q1 (Homo sapiens), P46063; RECQ1 DNA unwinding, red fluorescence kinetic read; Potency, µM (doses to about 57.3 µM), for inactives: top-dose activity, negative = inhibition, actives largely listed as inhibitors; actives 0.54% (n = 240,000); AID 2549, 2010;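 also: plate controls were vehicle for no effect and no enzyme for full effect; nearly all actives have a fitted effect of over 30% in size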
#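 50 nM RECQ1T1 preincubated 15 min with compound in Tris pH 8.0 buffer with MgCl2, DTT, Tween-20 and 2.5 ug/ml poly(dI-dC); started with 200 nM TAMRA/BHQ-2 forked duplex and 2 mM ATP. Unwinding read as fluorescence (525/598 nm), two reads 2 h apart.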
# Starred values were filed as active, the others as inactive; i = inactive; ? = inconclusive; / = no result given; & = joins results of further samples; [ ] = remark or other dose. Unless noted, calls follow the shape of the dose curve; as a rule, active = well fitted curve in the direction sought with a large enough effect; inconclusive = small, poorly fitted or top-dose-only effect, or another doubt; inactive = no such curve, though single readings can be large; an effect the other way counts as inactive or inconclusive. Potency is read from the fitted curve at half-maximal effect. A portion of the library; count on the stated rates, not on these rows.
SMILES,TR SRC2 fluor cs,ALDH1A1 block,Lamin A splicing,TRb-SRC2 inh,SMN2 splice enh,RECQ1 helicase
Cc1ccc(NC2SC(=O)N(CC(=O)O)C2=O)cc1 (stereo unspecified),-2.0%,-3.8%,14.6%,1.0%,21.3%,7.1%
COc1ccc(/C=C/C2=Nc3ccccc3NC(C)(C)C2)cc1OC,-2.5%,/,/,0.1%,/,-4.1%
FC(F)(F)c1ccccc1NC(=S)N1CCCC1,-1.4%,0.9%,/,7.8%,/,3.1%
CC1C(=O)N(Cc2ccc([N+](=O)[O-])cc2)c2ccccc2N1C(=O)C1CC1 (stereo unspecified),1.8%,23.7%,5.1%[46 µM],-1.1%,-23.7%,-2.8%
Cc1cc(=O)oc(C)c1C(=O)N[C@@H]1CCCCNC1=O,-6.8%,4.1%,-5.5%,-0.5%,8.5%,i
COc1c(C)cccc1C(=O)NC(=S)Nc1ccc2c(c1)Cc1ccccc1-2,-5.1%,6.6%,-1.7%,-1.1%,-20.6%,-9.2%
COC(=O)C1=NN(c2ccc(Cl)cc2)C2C(=O)N(c3ccccc3OC)C(=O)C12 (stereo unspecified),1.0%,?,-17.3%,-1.9%,-9.7%,-2.9%
CCN(CC)CC(=O)N1c2ccccc2Oc2c(c(=O)n(C)c(=O)n2C)C1c1cccc([N+](=O)[O-])c1 (stereo unspecified),-0.6%,/,/,-2.2%,/,-3.0%
COc1cccc(NC(=O)N2CCN(c3nc(-c4cccc(OC)c4)cs3)CC2)c1,-4.6%,/,/,-0.5%,/,i
C/C(=N\Nc1ccc(Cl)cc1)c1c(O)cc(C)oc1=O,-5.0%,7.94µM*,?,-4.0%,-19.8%,-9.2%
O=C(/C=C/NNC(=O)c1cccc(Br)c1)c1cccc(Br)c1,-1.3%,?,?,-14.8%,?,-20.3%
N#CC(c1ccncc1)(c1ncc(C(F)(F)F)cc1Cl)N1CCOCC1 (stereo unspecified),-1.6%,0.398µM*,0.4%[46 µM],-1.2%,-15.4%,-3.1%
COc1cc2c(cc1OC)-c1cc(N3CCCCCC3)nc(=O)n1CC2,-0.1%,?,?,-31.2%,26.1%,-1.8%
O=C1CCCCC1C(Nc1ccc(Cl)cc1)c1ccccc1 (stereo unspecified),-0.6%,-6.9%,15.8%,-10.5%,?,-11.0%
O=C(O)/C=C/C(=O)Nc1cc(F)ccc1F,-1.9%,/,/,-1.5%,/,-7.2%
CN1CCN(c2oc(/C=C/c3ccccc3)nc2C#N)CC1,-3.2%,/,/,1.3%,/,-8.1%
COc1cc2c(cc1OC)CN(C(=O)c1ccccc1C(=O)O)CC2,1.6%,-15.0%,-4.4%,-6.1%,22.1%,-13.8%
O=C(c1ccc(Cl)c(Cl)c1)N1CCC(=O)N(C(COCc2ccccc2)Cc2ccccc2)CC1 (stereo unspecified),-0.2%,?,?,4.1%,-15.4%,0.0%
Cc1cc(OCc2nc(-c3ccc(NC(=O)c4cccnc4)cc3)no2)ccc1Cl,-4.8%,6.5%,-9.6%,-9.4%,-4.5%,-3.4%
COc1ccccc1NC(=O)C1=C(C)Nc2nnnn2C1c1cccc(C)c1 (stereo unspecified),2.3%,14.1µM*,-6.6%,0.7%,4.6%,-14.3%
COc1ccc(-c2nnc(SCCC(=O)O)n2C)cc1OC,-4.2%,1.8%,-12.6%,-8.2%,-2.1%,-3.9%
Cc1ccc(CNc2nc3ccc(C)cc3n3cnnc23)cc1,-0.9%,?,1.0%,0.3%,-6.0%,-16.4%
NS(=O)(=O)c1cccc(NS(=O)(=O)c2cccc(C(F)(F)F)c2)c1,-0.3%,/,/,-7.9%,/,-4.2%
O=C(/C=C/NNC(=O)c1cccc(Br)c1)c1ccccc1,2.7%,2.82µM*,-3.1%,-14.8%,10.0%,-1.7%
O=c1c2ccccc2[nH]c(=S)n1CCN1CCC(=C(c2ccc(F)cc2)c2ccc(F)cc2)CC1,-2.8%,-15.3%,?,-4.0%,-28.0%,-0.9%
Cc1cccc(NC(=O)CSc2nc(C)c(Cc3ccccc3)c(=O)[nH]2)c1,1.2%&-12.2%,-7.7%,7.2%[46 µM],1.9%&2.9%,-18.5%&-6.4%,i
C/C(=N\NC(=O)c1ccc(NS(=O)(=O)c2cccs2)cc1)c1cccs1,1.2%,4.3%,7.7%[46 µM],1.9%,-4.7%,i
COC(=O)c1c(OC)cc2c(c1C)Oc1c(Cl)c(OC(C)=O)c(Cl)c(C)c1C(=O)O2,-4.4%,-7.4%,-9.2%,0.6%,5.8%,i
COc1ccccc1NC(=O)C(=O)N(c1cccnc1)C(C(=O)NC(C)(C)C)c1ccccc1F (stereo unspecified),-1.4%,-0.5%,-4.2%[46 µM],-3.0%,/,i
CC(=O)NS(=O)(=O)c1cccnc1Nc1cccc(Cl)c1C,0.2%,3.8%,-5.7%,-1.8%,-0.9%,-0.7%
COc1cc(C(=O)NCCc2c[nH]c3ccccc23)ccc1OCc1c(C)noc1C,-1.3%,6.3%,-13.0%[46 µM],-4.4%,1.3%,-3.5%
COCCn1nnnc1C(c1cc2cc(C)ccc2[nH]c1=O)N1CCc2ccccc21 (stereo unspecified),-4.6%,3.16µM*,9.4%,-5.5%,2.0%,-5.9%
Fc1cccc(Cc2noc(CN3CCSCC3)n2)c1,-0.3%,0.8%,/,-0.8%,/,i
CCc1ccc(NCc2cc3c(C)nn(-c4ccccc4)c3[nH]c2=O)cc1,-3.2%,2.0%,-18.0%,-8.4%,-4.2%,-8.0%
CCn1c2ccccc2c2cc(NC(=O)COC(=O)c3ccccc3O)ccc21,1.8%,0.0%,?,-1.3%,-5.4%,i
O=C(Nc1ccncc1)c1ccccc1F,-0.3%,0.3%,5.9%,2.1%,-8.8%,-12.9%
O=C(c1cc(Cl)cc(Cl)c1)N1CCC(=O)N(C(COCc2ccccc2)Cc2ccccc2)CC1 (stereo unspecified),-0.2%,-6.0%,?,0.2%,-12.4%,-0.1%
CC1(C)Cc2ccccc2C(/C(=N/O)C(N)=O)=N1,2.1%,-3.5%,6.1%,-8.2%,-2.5%,i
COc1ccccc1N1C(=O)C2C(C(=O)c3ccccc3)=NN(c3ccc(C)cc3)C2C1=O (stereo unspecified),-0.8%,/,/,2.0%,/,0.0%
C=CCn1c(CNC(=O)c2ccccc2F)nnc1SCc1nc2ccccc2c(=O)[nH]1,-3.2%,3.2%,/,-1.9%,/,i
COc1ccc(NC(=O)c2sc(Cl)nc2-c2ccccc2)cc1,0.6%,-13.2%,?,-1.5%,21.5%,-7.5%
C/C(=N\NC(=O)c1ccc(NS(=O)(=O)c2cccs2)cc1)c1ccncc1,-6.5%,?,/,-0.4%,11.8%,-1.1%
COc1ccc(/C(N)=N/OC(=O)c2cccs2)cc1,-1.0%,/,/,1.9%,/,-10.5%
O=[N+]([O-])c1ccc(S(=O)(=O)Nc2nc3ccccc3nc2Nc2ccccc2)cc1,-0.9%,2.4%,1.8%[46 µM],-8.2%,-33.4%[inhibitor],-1.6%
COc1cc2c(cc1OC)CN(C(=O)c1ccco1)CC2,-4.6%,14.1µM*,/,-5.2%,11.6%,-7.1%
CC(C)(C)NC(=O)CN(C(=O)CCN1CCCc2ccccc21)C(C)(C)C,-2.5%,19.7%,-1.0%,4.4%,-4.6%,-1.0%
COC(=O)C1=NN(c2ccc(OC)cc2)C2C(=O)N(c3ccccc3OC)C(=O)C12 (stereo unspecified),1.0%,/,/,7.1%,/,-4.5%
COc1ccccc1-n1c(-c2ccc(NS(C)(=O)=O)cc2)n[nH]c1=S,0.4%,?,19.7%,-15.4%,10.1%,-6.6%
CCn1c(CCNC(=O)c2ccc(Cl)cc2)nnc1SCC(=O)NC1CCCC1,0.7%,-15.1%,-15.8%,-21.3%,-7.4%,-18.2%
NC(CO)C(O)c1ccc([N+](=O)[O-])cc1 (stereo unspecified),0.8%,4.2%,30.9%[9.22 µM],4.6%,-0.3%,-5.8%
Cc1ncccc1C(=O)N1CCCC(CNC(=O)C2(c3ccc(Cl)cc3)CC2)C1 (stereo unspecified),-5.7%,7.7%,8.5%[46 µM],2.1%,/,-8.6%
CCC(CC)NC(=O)COC(=O)c1ccc(NS(=O)(=O)c2ccc3c(c2)OCCO3)cc1,-5.6%,?,-5.1%,-5.0%,-26.5%,2.5%
O=S(=O)(Cc1c(F)cccc1Cl)c1ncn[nH]1,-1.5%,11.3%,17.0%[46 µM],2.3%,1.3%,-2.5%
COc1ccc(C2CC2/C(C)=N/OC(=O)c2cccs2)cc1 (stereo unspecified),-1.3%,-14.3%,14.7%,-8.7%,11.1%,-18.5%
Cc1c(/C=N/NC(N)=O)c2ccccn2c1C(=O)c1ccc(F)cc1,-0.3%[53 µM],-7.5%,?,3.7%[53 µM],3.4%,-2.0%
N#CC(c1ccccn1)(c1ncc(C(F)(F)F)cc1Cl)N1CCOCC1 (stereo unspecified),0.7%,8.0%,4.1%,1.0%,-5.2%,7.1%
C[C@H](NS(=O)(=O)c1ccc(Cl)cc1)C(=O)OCC(=O)c1ccc[nH]1,-1.6%,/,/,5.7%,/,-1.7%
Cc1cccc(C)c1Nc1nnc(SCC(=O)Nc2sccc2C#N)s1,-6.0%,-18.8%,?,4.2%,13.8%,-17.4%
COc1cc2c(cc1OC)CN(C(=O)c1cccs1)CC2,3.6%,-3.4%,6.9%,2.1%,-0.4%,i
COc1cc2c(cc1OC)CN(C(=O)C(C)(C)C)CC2,-3.2%,5.5%,15.8%,0.1%,3.0%,-3.8%

# The last two compounds of the section before come first, to join the parts.
SMILES,TR SRC2 fluor cs,ALDH1A1 block,Lamin A splicing,TRb-SRC2 inh,SMN2 splice enh,RECQ1 helicase
COc1cc2c(cc1OC)CN(C(=O)c1cccs1)CC2,3.6%,-3.4%,6.9%,2.1%,-0.4%,i
COc1cc2c(cc1OC)CN(C(=O)C(C)(C)C)CC2,-3.2%,5.5%,15.8%,0.1%,3.0%,-3.8%
COc1cc(OC)cc(C(=O)N[C@H](C(=O)OCC(=O)c2ccc3c(c2)NC(=O)CO3)C(C)C)c1,-2.6%,22.4µM*,-2.9%,-1.5%,0.0%,i
C/C(=N\NC(=O)c1ccc(NS(=O)(=O)c2cccs2)cc1)c1ccc(Cl)cc1,-4.1%,-6.4%,3.5%,5.3%,-11.6%,i
CN1CCNC(=O)C1CC(=O)NCCc1ccccc1F (stereo unspecified),-2.1%[53 µM],-1.0%,6.1%[46 µM],0.6%[53 µM],/,5.6%
CC(C)CC(COCc1ccc(Cl)cc1)N1CCN(C(=O)c2cccc(C(F)(F)F)c2)CCC1=O (stereo unspecified),-2.5%,1.1%,?,2.5%,-16.6%,-8.0%
